Screening data as filed in PubChem.
NPYLR7 agonist – activates Aedes aegypti NPYLR7 receptor; AID 1259423; activation, % at 10 µM; 270,000 compounds, 0.15% hits; HEK293T NPYLR7/Galpha15, GCaMP6s calcium fluorescence; in the data active = activation above about 40%;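 also: 0% = vehicle and 100% = reference agonist at the receptor; some compounds past the cut are filed as inactive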
NPYLR7 agonist max-min – also measured in NPYLR7 agonist; calls as there; activation, %; measured here: Max-Min RFU normalised activation; some inactives read as strong as hits;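 span of the calcium signal over five minutes; 0% = vehicle and 100% = native peptide agonist; compound fluorescence can raise it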
The depositor's hits bear a star; & = joins results of further samples. An excerpt; rates above refer to the full screens.

1. CCNC(=O)N1C2CCC3(CC2)OC(=O)N(Cc2ccccc2)CC13 (stereo not given)
2. O=C(CCS(=O)(=O)C1CCCC1)N1CCCC(n2ccnc2)C1 (stereo not given)
3. O=c1ccc2cc(S(=O)(=O)N3CCOCC3)ccc2o1
4. COc1ccccc1NS(=O)(=O)c1cc(C(=O)NCCC(C)C)ccc1C
5. COCC(=O)N1CCN(C(C(=O)N(C)Cc2ccco2)C2CCCC2)CC1 (stereo not given)
6. CCCCn1c(SC(C)c2nnc(CC)o2)nc(C)c1C (stereo not given)
7. CCc1c(C)c(C(=O)N2CCN(C(C)=O)CC2)n(Cc2cccc(C)c2)c1C
8. CCCCC(C(=O)O)N1C(=O)C2C3C=CC(C4CC34)C2C1=O (stereo not given)

| assay / entry | 1 | 2 | 3 | 4 | 5 | 6 | 7 | 8 |
| --- | --- | --- | --- | --- | --- | --- | --- | --- |
| NPYLR7 agonist | 24.5 | 2.0 | 14.7 | -1.8 | 0.8 | 5.1 | 36.0 | 16.5 |
| NPYLR7 agonist max-min | 28.3 | 2.6 | 7.9 | -1.6 | 25.5 | 3.2 | 34.0 | 14.5 |

9. NC(=O)c1cc(-c2csc(NC(=O)CC3CC4CCC3C4)n2)c[nH]1 (stereo not given)
10. CC(C)(C)c1ccc(COc2coc(CN3CCCN(C(=O)c4cc(C(F)(F)F)cc(C(F)(F)F)c4)CC3)cc2=O)cc1
11. O=C(c1cccc(CSc2nc(Cl)cc(N3CCOCC3)n2)c1)N1CCN(c2cccc(C(F)(F)F)c2)CC1
12. CC(C)(C)c1ccc2oc(-c3ccc(NC(=O)c4cccc([N+](=O)[O-])c4)cc3)nc2c1
13. O=C1NCCN2CCN(C(=O)CCn3nnc(-c4ccccc4)n3)CC12 (stereo not given)
14. NC(=O)C1CCN(C(=O)Cc2cc(-c3cc4ccccc4o3)on2)CC1
15. CNC(=O)CC(C)N(C)Cc1cnc(-c2cccc(C)c2)nc1 (stereo not given)
16. O=C(Nc1noc2ncccc12)C(c1ccccc1)c1ccccc1

| assay / entry | 9 | 10 | 11 | 12 | 13 | 14 | 15 | 16 |
| --- | --- | --- | --- | --- | --- | --- | --- | --- |
| NPYLR7 agonist | -1.1 | -3.2 | 17.3 | -8.6 | -3.8 | 8.4 | 0.3 | 5.7 |
| NPYLR7 agonist max-min | 28.8 | -6.2 | 21.7 | -11.0 | -9.1 | 11.7 | 1.1 | 5.1 |

17. CCn1cccc(-c2nnc(SCC(=O)NCc3ccc(F)cc3)n2C)c1=O
18. COC(=O)c1c(C)oc2c1cc(NS(=O)(=O)c1ccc3ccccc3c1)c1ccccc12
19. CC1=C(C(=O)NCCn2nc(C)cc2C)C(=O)OC1(C)C
20. N#Cc1ccc(OCc2ccccc2)nc1
21. O=S(=O)(c1cccc(C(F)(F)F)c1)N1CCN(Cc2ccccc2)CC1
22. COCCCN(CC(=O)Nc1cc(C(C)(C)C)nn1-c1ccccc1C)C(=O)c1cccc([N+](=O)[O-])c1
23. Cc1nc2ccc(S(=O)(=O)NCCn3nc(-c4cccs4)ccc3=O)cc2s1
24. Cc1ccc(NC(=O)CSc2cc(C)nc3c(-c4ccccc4)c(C)nn23)cc1

| assay / entry | 17 | 18 | 19 | 20 | 21 | 22 | 23 | 24 |
| --- | --- | --- | --- | --- | --- | --- | --- | --- |
| NPYLR7 agonist | 1.6 | -5.0 | -0.8 | 11.7 | -1.2 | 24.0 | 2.8 | -5.0 |
| NPYLR7 agonist max-min | 0.9 | -8.1 | -3.7 | 4.0 | 3.9 | 27.1 | 1.2 | -7.6 |

25. O=C(c1cnn(-c2ccccc2)c1C(F)(F)F)N1CCCC1
26. Cc1ccc(C)c(NC(=O)Cn2nc(C)c3cnn(-c4ccc(F)cc4)c3c2=O)c1
27. COc1ccc(COCC(=O)N2CCN(C3CCCC3O)CC2)cc1 (stereo not given)
28. CC1(C(=O)NS(=O)(=O)Cc2cccc(Cl)c2)CCN1C(=O)Cc1ccc(-c2ccccc2)cc1 (stereo not given)
29. CCCCN(C=O)c1c(CC)nc2c(OCC(=O)C(C)(C)C)cccn12
30. CCC(Nc1cc2oc3ccccc3c2cc1OC)C(=O)OC (stereo not given)
31. O=C(c1n[nH]c2c1CCCC2)N1CCc2c([nH]c3ccccc23)C1c1ccccn1 (stereo not given)
32. O=C(NC1CCCc2ccccc21)C1=CN2CCS(=O)(=O)N=C2C=C1 (stereo not given)

| assay / entry | 25 | 26 | 27 | 28 | 29 | 30 | 31 | 32 |
| --- | --- | --- | --- | --- | --- | --- | --- | --- |
| NPYLR7 agonist | 5.1 | 12.6 | 1.8 | 1.5 | -1.7 | -0.8 | 0.0 | 8.4 |
| NPYLR7 agonist max-min | 7.2 | 13.0 | 1.7 | 0.6 | 2.6 | -2.2 | -9.0 | 7.4 |

33. CC(C)c1nc(C(N)=O)c2[nH]c(=O)n(-c3ccccc3F)c2n1
34. O=C1C2C3C=CC(C4CC34)C2C(=O)N1CCO (stereo not given)
35. O=[N+]([O-])c1ccccc1C=CC=Nn1c(-c2ccc(Cl)cc2)n[nH]c1=S
36. Cc1cc(C)cc(-n2nc(C(=O)NCc3ccc4c(c3)OCO4)c(=O)n(Cc3cccc(F)c3)c2=O)c1
37. O=c1cc(CSc2ncnc3c2oc2ccccc23)nc2sc3c(n12)CCCC3
38. C=CCOC(=O)C1=C(C)Nc2nnnn2C1c1cccs1 (stereo not given)
39. COc1cc(OC)cc(C2=NC(=Cc3ccc(OCC(N)=O)c(OC)c3)C(=O)O2)c1
40. COc1ccc(N=C2SCCN2CC(=O)c2ccc(Cl)cc2)cc1

| assay / entry | 33 | 34 | 35 | 36 | 37 | 38 | 39 | 40 |
| --- | --- | --- | --- | --- | --- | --- | --- | --- |
| NPYLR7 agonist | -4.6 | 6.5 | -5.7 | -3.2 | -3.7 | 2.1 | 1.9 | 3.4 |
| NPYLR7 agonist max-min | -9.2 | 5.1 | -7.3 | 0.8 | -7.7 | -2.0 | 7.6 | -4.5 |

Reprinted from the part before: 3 compounds, then new ones.
38. C=CCOC(=O)C1=C(C)Nc2nnnn2C1c1cccs1 (stereo not given)
39. COc1cc(OC)cc(C2=NC(=Cc3ccc(OCC(N)=O)c(OC)c3)C(=O)O2)c1
40. COc1ccc(N=C2SCCN2CC(=O)c2ccc(Cl)cc2)cc1
41. CCOC(=O)N1[C@@H](c2ccco2)[C@@H](C(=O)O)C[C@]12CCCCNC2=O
42. COc1ccc(SC(C)C(=O)NCc2cccn2C)cc1 (stereo not given)
43. CN(CC1CCOCC1)C(=O)c1cc(COc2ccc(-n3cncn3)cc2)on1
44. COc1ccc(OC)c(-n2c(C)cn3c4c(=O)n(CC(C)=O)c(=O)n(C)c4nc23)c1
45. CN(CC1CCOCC1)C(=O)c1cc(COc2cccc3cnccc23)on1
46. CCCCOc1ccc(S(=O)(=O)N2CCN(C3c4ccccc4CCc4ccccc43)CC2)cc1
47. c1ccc(-c2cc(NCC3CCCO3)nc3ccccc23)cc1 (stereo not given)
48. Cc1ccc(S(=O)(=O)Nc2ccc(Nc3ccc(-n4ccc(C)n4)nn3)cc2)cc1

| assay / entry | 38 | 39 | 40 | 41 | 42 | 43 | 44 | 45 | 46 | 47 | 48 |
| --- | --- | --- | --- | --- | --- | --- | --- | --- | --- | --- | --- |
| NPYLR7 agonist | 2.1 | 1.9 | 3.4 | 2.4 | -5.3 | 6.5&2.8 | 2.4 | 18.1 | 2.5 | -1.1 | -5.7 |
| NPYLR7 agonist max-min | -2.0 | 7.6 | -4.5 | 6.7 | -6.6 | 5.8&1.2 | 1.4 | 13.3 | 0.9 | 37.7 | -11.2 |

49. CCOC(=O)[C@@H]1[C@@H](OC)C(=O)N(C)C12CCN(S(=O)(=O)c1ccc(NC(C)=O)cc1)CC2
50. Cc1ccccc1N1CCN(c2ncccc2CNc2ncnc3c2CCC3)CC1
51. CN(Cc1ccc(Cl)c(Cl)c1)Cn1nc(-c2ccncc2)n(C2CC2)c1=S
52. COC(=O)CN1CCN(C(=O)c2cnc(-c3ccccc3)nc2)C(C)C1=O (stereo not given)
53. CN(CCCSCC#N)Cc1cc(Br)cs1
54. CC(C)Oc1ccc(S(=O)(=O)N2CCOCC2)cc1NC(=O)CN1CCCCCCC1
55. Cn1c(SC2CCCCNC2=O)nnc1-c1ccccc1Cl (stereo not given)
56. O=C(CCN1C(=O)c2ccccc2C1=O)N1CCN(S(=O)(=O)c2cc(F)ccc2F)CC1

| assay / entry | 49 | 50 | 51 | 52 | 53 | 54 | 55 | 56 |
| --- | --- | --- | --- | --- | --- | --- | --- | --- |
| NPYLR7 agonist | 4.4 | -3.4 | 7.3 | 2.5 | -2.3 | 0.4 | -6.7 | 0.8 |
| NPYLR7 agonist max-min | 15.6 | -1.2 | 4.4 | 1.8 | -2.6 | 24.5 | -8.8 | 5.7 |

Down the list, as entered above:
Compounds 12 to 22 in NPYLR7 agonist, in turn: -8.6, -3.8, 8.4, 0.3, 5.7, 1.6, -5.0, -0.8, 11.7, -1.2, 24.0
Compounds 12 to 22 in NPYLR7 agonist max-min, in turn: -11.0, -9.1, 11.7, 1.1, 5.1, 0.9, -8.1, -3.7, 4.0, 3.9, 27.1

4 records picked at random from the list so far, as already listed:
55. Cn1c(SC2CCCCNC2=O)nnc1-c1ccccc1Cl (stereo not given)
56. O=C(CCN1C(=O)c2ccccc2C1=O)N1CCN(S(=O)(=O)c2cc(F)ccc2F)CC1
50. Cc1ccccc1N1CCN(c2ncccc2CNc2ncnc3c2CCC3)CC1
51. CN(Cc1ccc(Cl)c(Cl)c1)Cn1nc(-c2ccncc2)n(C2CC2)c1=S

| assay / entry | 55 | 56 | 50 | 51 |
| --- | --- | --- | --- | --- |
| NPYLR7 agonist | -6.7 | 0.8 | -3.4 | 7.3 |
| NPYLR7 agonist max-min | -8.8 | 5.7 | -1.2 | 4.4 |

Later entries:
57. Oc1[nH]c2ccccc2c1N=Nc1ccccc1F
58. Cc1ccc2[nH]c(O)c(N=Nc3ccccc3)c2c1Br
59. Cc1c(C(=O)OC2CCCCCC2)[nH]c2c1C(=O)CCC2
60. CCc1cc2c(=O)n(Cc3ccco3)c(SCC(=O)NCC3CCCO3)nc2s1 (stereo not given)
61. c1ccc(CNc2nccc(C3CCCC3)n2)nc1
62. COC(=O)C1=C(C)N(C)C(=O)NC1c1ccc(I)cc1 (stereo not given)
63. Cc1cccc(-c2cc(C(=O)O)c3[nH]c(C)nc3n2)c1
64. COc1ccc(-c2c3c(=O)n(Cc4cccnc4)ccc3nc3nc(C)nn23)cc1

| assay / entry | 57 | 58 | 59 | 60 | 61 | 62 | 63 | 64 |
| --- | --- | --- | --- | --- | --- | --- | --- | --- |
| NPYLR7 agonist | -0.3 | -5.4 | 8.0 | 0.4 | 8.8 | 6.1 | -0.9 | 2.0 |
| NPYLR7 agonist max-min | -7.1 | -9.0 | 1.9 | -1.4 | 6.3 | 6.3 | -1.5 | 0.4 |
